From PubChem
MITF inh = inhibitors of MITF; TRPM1 promoter luciferase, luminescence, 24 h; inhibition, % (test concentration not listed); 0.28% of 37,000 active; AID 2240;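 active = most replicates at 85% or more, or half of them and the mean; inconclusive = half reach 85% but not the mean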;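 also: human melanocyte line stably carrying TRPM1 promoter luciferase reporter; 0% = vehicle wells and 100% = a positive control; the first replicate is given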
YB-1 expression = YB-1 expression inhibition; U2OS, qRT-PCR YB-1 vs CDIP delta delta Cp, 16 h; stronger effect = higher value; zero = DMSO, each unit about twofold; delta delta Cp (YB-1 minus CDIP) (no concentration beside the values); 0.37% of 30,000 active; AID 434959;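 active = delta delta Cp rounded down to an integer at or above 3, about 3 SD of DMSO wells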;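 also: higher means less YB-1 transcript or more CDIP transcript relative to DMSO; stock transfer was 100 nL into about 100 µL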
Shh pathway inh = Sonic Hedgehog pathway inhibition; Shh-LIGHT2 Gli-luciferase reporter, 30 h; inhibition, % (concentration not given with the values); 2.1% of 22,000 active; AID 2313;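 active = replicate mean of 65% or more; inconclusive = mean lower but half the replicates past it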;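 also: pathway switched on by Shh-conditioned medium diluted 1 in 25 in low serum; 100 nL library stock added to about 40 µL; 0% = median of neutral wells and 100% = positive control level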
PD-1 reversal = reversal of PD-1 mediated T-cell inhibition. primary human CD4 T cells, PD-L1 beads, CellTiter-Glo 96 h. activation, % (no concentration beside the values). 29,000 tested, under 10 active;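 active = replicate mean of 50% or more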;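 also: 0% = median vehicle wells and 100% = positive control; 100 nL library stock added to about 50 µL; numbers are from one replicate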
Starred values were filed as active, the others as inactive; ? = inconclusive; / = not tested or not shown. Only part of the results is shown; rates above refer to the full screens.

SMILES	MITF inh	YB-1 expression	Shh pathway inh	PD-1 reversal
CC(C)NC(=O)Nc1ccc2c(c1)CC(=O)N([C@@H](C)CO)C[C@H](C)[C@@H](CN(C)C(=O)Nc1cccc3ccccc13)O2	0	-0.1	?	/
C[C@H](CO)N1C[C@H](C)[C@@H](CN(C)Cc2ccc(C(=O)O)cc2)Oc2c(NC(=O)Nc3ccc(C(F)(F)F)cc3)cccc2C1=O	4	-0.19	-7	1.2
C[C@@H]1CN([C@H](C)CO)C(=O)c2cccc(NS(=O)(=O)c3cccs3)c2O[C@H]1CN(C)C	-1	0.085	-4	1.5
O=c1c(Cc2ccccc2OCc2ccccc2)coc2ccccc12	17	-0.27	93*	-0.3
c1ccc(OCCSc2nc3ccccc3n2CCOc2ccccc2)cc1	-4	-0.46	/	1.4
CC(C)NC(=O)Nc1ccc2c(c1)CC(=O)N([C@H](C)CO)C[C@H](C)[C@H](CN(C)S(=O)(=O)c1cn(C)cn1)O2	1	0.12	-6	1.0
Cn1c(COc2ccccc2)nnc1SCc1nc2ccccc2c(=O)[nH]1	-8	/	/	-0.2
C[C@H]1CN([C@@H](C)CO)C(=O)Cc2cc(NS(C)(=O)=O)ccc2O[C@@H]1CN(C)Cc1ccc(C(=O)Nc2ccccc2N)cc1	-7	-0.29	/	0.2
Cc1ccc(-c2nnc(SCC(=O)Nc3ccccc3Cl)n2C)c(Cl)c1	28	/	/	0.7
COc1ccc(OC(C)C(=O)Nc2cc(C)c(Cl)cc2OC)cc1 (stereo not drawn)	36	/	/	0.8
Cc1ccc(S(=O)(=O)N(C)C[C@@H]2Oc3c(NC(=O)c4nc5ccccc5s4)cccc3C(=O)N([C@@H](C)CO)C[C@H]2C)cc1	30	-0.042	9	/
CC(=O)CCC1C2C(O)C(C(C)C)C(OC(=O)/C=C/c3ccccc3)CC12C (stereo not drawn)	10	-0.54	-26	-0.1
C[C@@H]1CN([C@@H](C)CO)C(=O)c2cc(NC(=O)C3CCCCC3)ccc2O[C@H]1CN(C)Cc1ccc(Cl)c(Cl)c1	-8	-0.27	-7	/
Cc1ccc(C2C(C(=O)c3cccs3)C(=O)C(=O)N2CCN(C)C)o1 (stereo not drawn)	-15	/	/	2.8
C[C@@H]1CN([C@H](C)CO)C(=O)Cc2cc(NC(=O)Nc3ccccc3)ccc2O[C@H]1CN(C)S(=O)(=O)c1ccc(Cl)cc1	-7	-1.1	11	-7.0
Cc1cccc(NC(=O)c2ccccc2OCC(=O)Nc2cccc([N+](=O)[O-])c2)c1C	15	/	/	-1.8
C[C@H]1CN([C@@H](C)CO)C(=O)c2cccc(NC(=O)C3CCOCC3)c2O[C@@H]1CN(C)C(=O)Nc1ccc2c(c1)OCO2	-8	-0.18	-31	0.9
O=C(Cn1c(=O)oc2ccccc21)Nc1ccc(C(=O)O)cc1	-2	/	/	0.5
C=CCNC(=O)COc1ccc(Cl)cc1Cl	-33	0.52	-56	0.9
O=C(CC1(O)C(=O)N(Cc2ccc(Cl)c(Cl)c2)c2ccccc21)c1ccc2c(c1)OCCO2 (stereo not drawn)	-3	/	/	1.1
COc1ccc(S(=O)(=O)Nc2ccc3c(c2)CC(=O)N([C@H](C)CO)C[C@@H](C)[C@@H](CN(C)S(=O)(=O)c2ccc(C)cc2)O3)cc1	-18	-0.17	-1	0.8
C[C@@H]1CN([C@@H](C)CO)C(=O)c2cccc(NC(=O)C3CC3)c2O[C@@H]1CN(C)Cc1ccncc1	0	0.28	-17	0.9
COC(=O)c1c(NC(=S)NCc2cc(C)n(C)n2)sc2c1CCCCCC2	11	/	/	-0.7
COc1ccc(NC(=O)N(C)C[C@H]2Oc3ccc(NC(=O)CCCN(C)C)cc3C(=O)N([C@@H](C)CO)C[C@H]2C)cc1	6	-0.15	1	0.8
COc1ccc(S(=O)(=O)Nc2ccc3c(c2)C(=O)N([C@@H](C)CO)C[C@@H](C)[C@@H](CN(C)Cc2ccc(Cl)c(Cl)c2)O3)cc1	61	-0.31	?	-3.0
Cc1ccc(C(=O)c2cccs2)s1	-47	-0.077	-102	0.3
COc1ccc(S(=O)(=O)N(C)C[C@H]2Oc3ccc(NC(=O)Cc4ccccc4)cc3CC(=O)N([C@H](C)CO)C[C@H]2C)cc1	6	0.36	-72	-1.0
COc1ccc(S(=O)(=O)Nc2ccc3c(c2)C(=O)N([C@H](C)CO)C[C@H](C)[C@@H](CN(C)S(=O)(=O)c2ccc(Cl)cc2)OCCCC[C@@H](C)O3)cc1	41	-0.23	7	/
O=C(/C=C/c1ccccc1)C1C(=O)C(=O)N(c2ccccc2)C1c1ccccc1 (stereo not drawn)	4	0.026	/	0.7
C[C@H]1CN([C@@H](C)CO)C(=O)c2cc(NC(=O)Nc3ccccc3)ccc2O[C@@H]1CN(C)C(=O)Nc1ccccc1	-9	-0.15	-3	1.3
C[C@H](CO)N1C[C@H](C)[C@@H](CN(C)C(=O)Nc2ccc(F)cc2)Oc2ccc(NS(=O)(=O)c3ccc(Cl)cc3)cc2C1=O	-5	-0.15	-19	/
COc1ccc(NC(=O)Nc2cccc3c2O[C@@H](CN(C)C)[C@H](C)CN([C@H](C)CO)C3=O)cc1	-8	-0.2	-8	/
CC(C)(C)C1CCc2c(sc(NC(=O)CSc3nnc(-c4ccccc4)o3)c2C#N)C1 (stereo not drawn)	-3	/	/	1.4
C[C@@H]1CN([C@H](C)CO)C(=O)c2cc(NC(=O)c3ccncc3)ccc2O[C@H]1CN(C)Cc1ccccc1	-22	-0.0001	/	-0.4
COC(=O)c1ccc(COc2ccc3c(C)cc(=O)oc3c2)o1	-75	/	/	2.3
O=C(COc1ccccc1)Nc1cccc(Oc2ccc3c(c2)C(=O)NC3=O)c1	1	/	/	0.6
COc1ccc(NC(=O)N(C)C[C@@H]2Oc3ccc(NS(=O)(=O)c4ccc(C)cc4)cc3CC(=O)N([C@@H](C)CO)C[C@@H]2C)cc1	7	0.33	-14	/
COC(=O)c1ccc(C)c(NC(=O)CN(c2ccc(F)cc2)S(C)(=O)=O)c1	-4	/	/	0.4
CCOc1c(CNCc2ccccn2)cccc1OC	-7	/	/	0.0
Cn1nnnc1SCC(=O)Nc1cccc(Cl)c1	-35	/	/	1.9
Cc1noc(C)c1NC(=O)Nc1ccc2c(c1)C(=O)N([C@@H](C)CO)C[C@H](C)[C@@H](CN(C)CC1CCCCC1)O2	6	0.014	0	1.9
C=C1CC[C@@H](O)[C@]2(C)C[C@H]3OC(=O)C(=C)[C@H]3CC12 (stereo partly drawn)	38	-0.48	30	-5.7
COc1ccc(NC(=O)N(C)C[C@H]2Oc3ccc(NS(=O)(=O)c4ccc(C)cc4)cc3C(=O)N([C@H](C)CO)C[C@H]2C)cc1	-3	-0.11	-16	1.0
COc1ccc(NC(=O)Nc2ccc3c(c2)CC(=O)N([C@@H](C)CO)C[C@H](C)[C@H](CN(C)C(=O)Nc2ccc4c(c2)OCO4)O3)cc1	-8	0.18	48	0.0
Cc1ccc(S(=O)(=O)Nc2ccc3c(c2)C(=O)N([C@@H](C)CO)C[C@@H](C)[C@@H](CN(C)S(=O)(=O)c2ccc(F)cc2)O3)cc1	4	-0.35	2	-0.6
C[C@H]1CN([C@@H](C)CO)C(=O)Cc2cc(NC(=O)Nc3ccccc3)ccc2O[C@H]1CN(C)S(=O)(=O)c1ccccc1	0	0.36	-5	1.9
C[C@@H]1CN([C@@H](C)CO)C(=O)c2cc(NC(=O)Cc3ccccc3)ccc2O[C@@H]1CN(C)Cc1ccc2c(c1)OCO2	-7	0.15	/	/
C[C@@H]1CCCCO[C@@H](CN(C)C(=O)Nc2cccc3ccccc23)[C@@H](C)CN([C@H](C)CO)C(=O)c2cc(NC(=O)c3ccccc3)ccc2O1	14	-0.28	9	/
CCSC1=C(C#N)C(c2cccs2)C(C(=O)Nc2ccccc2)=C(C)N1 (stereo not drawn)	-1	-0.12	26	0.3
CCn1c(SCC(=O)Nc2ccccc2OC)nnc1-c1ccncc1	-3	/	/	-0.6
C=CCNC(=O)CSc1nccc(-c2sc3sc(Br)c(C)c3c2C)n1	19	0.55	33	-0.6
Cc1ccc(S(=O)(=O)N(C)C[C@@H]2Oc3c(NS(=O)(=O)c4cccs4)cccc3C(=O)N([C@H](C)CO)C[C@@H]2C)cc1	1	-0.48	54	0.8
c1csc(-c2nnc(CSc3cccc4cccnc34)o2)c1	-30	0.025	/	-6.2
Cc1ccc(S(=O)(=O)N(C)C[C@H]2Oc3c(NC(=O)C4CCOCC4)cccc3C(=O)N([C@@H](C)CO)C[C@@H]2C)cc1	-8	0.019	21	/
C[C@@H]1CCCCO[C@@H](CN(C)C(=O)CCC(F)(F)F)[C@@H](C)CN([C@H](C)CO)C(=O)c2cc(NC(=O)CCC(F)(F)F)ccc2O1	-16	0.097	-12	3.2
C[C@@H]1CN([C@@H](C)CO)C(=O)c2cccc(NC(=O)NC3CCCCC3)c2O[C@H]1CN(C)Cc1ccncc1	2	0.16	-7	-1.4
Cc1noc(C)c1NC(=O)N(C)C[C@H]1Oc2ccc(NC(=O)CCCN(C)C)cc2C(=O)N([C@@H](C)CO)C[C@@H]1C	-3	0.34	10	1.3
CC(C)NC(=O)Nc1ccc2c(c1)C(=O)N([C@@H](C)CO)C[C@H](C)[C@H](CN(C)S(=O)(=O)c1ccc(F)cc1)O2	-6	0.26	55	0.3
CS(=O)(=O)Nc1ccc(C(=O)NCc2cccnc2)cc1	-6	/	/	1.9
COc1ccccc1C1=NOC(Cn2c(NCc3ccccc3)nc3c2c(=O)n(C)c(=O)n3C)C1 (stereo not drawn)	-13	/	/	1.9

(continued)
SMILES	MITF inh	YB-1 expression	Shh pathway inh	PD-1 reversal
C[C@H]1CN([C@@H](C)CO)C(=O)c2cc(NC(=O)Nc3ccc4c(c3)OCO4)ccc2O[C@H]1CN(C)C(=O)Nc1ccccc1	-9	0.12	56	0.0
O=c1c2ccccc2nc(CSc2nnc3c4ccccc4nc(-c4ccccc4)n23)n1-c1ccccc1F	-11	/	/	-0.2
C[C@H]1CN([C@@H](C)CO)C(=O)Cc2cc(NC(=O)Nc3ccc(C(F)(F)F)cc3)ccc2O[C@@H]1CN(C)S(=O)(=O)c1ccc(F)cc1	37	-0.47	24	/
COC(=O)c1ccc(NC(=O)CSc2nncc3ccccc23)cc1	-12	/	/	-2.7
C[C@H](CO)N1C[C@H](C)[C@H](CN(C)S(=O)(=O)c2ccc(F)cc2)Oc2ccc(NC(=O)NC3CCCCC3)cc2CC1=O	12	-0.021	40	/
Cc1cc(C2(c3cc(C)c(N)c(C)c3)CCCCC2)cc(C)c1N	25	-0.43	/	-1.2
COc1ccc(S(=O)(=O)Nc2ccc3c(c2)CC(=O)N([C@@H](C)CO)C[C@H](C)[C@H](CN(C)C(=O)Nc2ccc(F)cc2)O3)cc1	-9	-0.23	/	1.0
COc1ccc(S(=O)(=O)N(C)C[C@@H]2Oc3ccc(NC(=O)Cc4ccccc4)cc3C(=O)N([C@@H](C)CO)C[C@@H]2C)cc1	2	0.34	-8	0.0
COc1ccc(CN(C)C[C@@H]2Oc3c(NS(=O)(=O)c4ccc(F)cc4)cccc3C(=O)N([C@@H](C)CO)C[C@@H]2C)cc1	6	0.056	17	0.0
Cc1nn(-c2ccccc2)c(C)c1NC(=O)COc1ccc2ccccc2c1	67	/	/	-0.9
COC(=O)c1ccc(OCC(=O)Nc2ccsc2C(=O)OC)cc1	-71	/	/	-1.3
C[C@@H]1CCCCO[C@@H](CN(C)C(=O)c2ccncc2)[C@@H](C)CN([C@H](C)CO)C(=O)c2cc(NC(=O)CCC(F)(F)F)ccc2O1	3	0.12	-3	0.9
